RanGTP-Impb inh: inhibitors of RanGTP-importin-beta interaction, primary screen, biochemical, FRET, CFP-Ran, YFP-importin-beta, homogeneous; cell-free CFP-Ran/YFP-importin-beta FRET ratio; inhibition, % (concentration not given with the values); 300,000 tested, 1.1% active; AID 2216;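 active = most replicates above 15%; inconclusive = exactly half above 15%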;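 also: 0% = DMSO wells and 100% = Ran loaded with GDP instead of GTP; wells of about 40 µL received 100 nL stock; the first replicate is given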
Vif TR-FRET: HIV-1 Vif–A3G interaction blockers – biochemical, TR-FRET, GST-Vif 1-94, biotin-A3G peptide, dose response retest, primary screen (AID 1117319) | TR-FRET GST-Vif / biotin-A3G peptide binding; higher % means a stronger effect; test concentration not given here; strong numbers were not always called active | 260,000 tested, 0.57% active | inhibition, %; hits with a dose series show IC50 in µM;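 active = above the screen mean plus three standard deviations and confirmed in dose response; inconclusive = results disagree or hit not tested in dose response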;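 also: Vif residues 1-94 fused to GST binding biotinylated APOBEC3G peptide 110-148; 0% = full assay without inhibitor and 100% = GST in place of GST-Vif; retest series ran down from 100 µM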
B2AR ag: agonists of human beta-2 adrenergic receptor inducing internalization. P07550. Am2.2-beta2AR cells, FAP receptor internalization, flow cytometry; reference of the scale not given here. response, % (test concentration not listed). 340,000 tested, 0.43% active. AID 504454;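 active = response above a set limit, near 3 SD of response in nonfluorescent compounds, cut at about 42% in these data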;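 also: stock transfer was 100 nL into about 11 µL; a reference agonist was the positive control; negative values mostly stem from fluorescent compounds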
Target sequence (P07550 whole entry, looked up): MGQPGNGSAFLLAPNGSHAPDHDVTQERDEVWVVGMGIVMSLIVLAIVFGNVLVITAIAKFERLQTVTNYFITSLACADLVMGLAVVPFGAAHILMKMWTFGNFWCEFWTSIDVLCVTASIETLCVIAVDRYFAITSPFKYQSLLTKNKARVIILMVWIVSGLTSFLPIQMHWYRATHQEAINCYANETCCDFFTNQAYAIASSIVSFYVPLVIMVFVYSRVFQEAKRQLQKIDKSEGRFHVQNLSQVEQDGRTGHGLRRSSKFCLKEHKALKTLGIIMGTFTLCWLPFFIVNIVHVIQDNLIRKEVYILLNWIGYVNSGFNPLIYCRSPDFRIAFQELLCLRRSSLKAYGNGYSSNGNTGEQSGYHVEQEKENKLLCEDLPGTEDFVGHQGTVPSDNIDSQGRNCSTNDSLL
HNF4A DNA FP: change in binding of human HNF4 alpha to DNA; 360,000 tested, 0.3% active; AID 1224865; HNF4a-FITC DNA binding, fluorescence polarization, 1 h; activity change, % at 10 µM; in the data active = activity change above about 30%, passing the limit was not always enough;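 also: controls were the assay level and a saturating level of protein; the project sought stronger binding though the title names inhibitors; some compounds called inactive have numbers as strong as hits; positive values seem to mean higher polarization but the record does not say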
Target sequence (P41235 whole entry, looked up): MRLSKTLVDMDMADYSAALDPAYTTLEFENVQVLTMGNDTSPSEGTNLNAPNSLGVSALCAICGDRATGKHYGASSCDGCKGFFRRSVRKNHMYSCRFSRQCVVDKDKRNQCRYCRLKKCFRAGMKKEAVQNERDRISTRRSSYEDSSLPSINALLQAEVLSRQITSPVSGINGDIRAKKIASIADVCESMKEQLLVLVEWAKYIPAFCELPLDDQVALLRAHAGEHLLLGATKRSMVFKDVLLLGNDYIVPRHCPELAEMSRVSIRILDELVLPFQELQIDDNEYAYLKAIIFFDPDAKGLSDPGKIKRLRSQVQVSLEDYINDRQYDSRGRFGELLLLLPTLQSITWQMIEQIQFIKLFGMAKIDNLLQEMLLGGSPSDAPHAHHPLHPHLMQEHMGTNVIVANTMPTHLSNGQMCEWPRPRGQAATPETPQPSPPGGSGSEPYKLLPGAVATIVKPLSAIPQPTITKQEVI
ALR H2O2 inh: blocks human ALR sulfhydryl oxidase activity; purified ALR, DTT oxidation, H2O2 HRP-luminol luminescence; AID 485317; 290,000 tested, 3.8% active; inhibition, % (no concentration beside the values);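 active = mean and each replicate at 75% or more; inconclusive = only one of the two met; inactive = neither met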;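 also: stock transfer was 7.5 nL into about 7.5 µL; 0% = neutral wells and 100% = wells with inactivated enzyme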
Target sequence (P55789 whole entry, looked up): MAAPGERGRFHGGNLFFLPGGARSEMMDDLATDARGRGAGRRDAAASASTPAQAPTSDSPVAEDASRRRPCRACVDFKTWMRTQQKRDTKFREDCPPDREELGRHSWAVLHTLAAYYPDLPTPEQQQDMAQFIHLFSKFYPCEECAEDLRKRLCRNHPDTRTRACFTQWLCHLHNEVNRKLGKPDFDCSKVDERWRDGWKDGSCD
Calb FLC: affects C. albicans growth with fluconazole. C. albicans CaCi-2 (fluconazole-resistant clinical isolate) + fluconazole, Alamar Blue growth, 48 h. 300,000 tested, 0.57% active. growth inhibition, % (concentration not given with the values);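 active = most replicates above 75%; inconclusive = exactly half above 75%; inactive = most below 75%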;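 also: all wells also contain fluconazole at 8 µg/ml as a sub-toxic cotreatment; 0% = median of DMSO wells and 100% = median of geldanamycin control wells; wells of about 8 µL received 7.5 nL stock; the first replicate is given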
LANA-H2A inh: blocks KSHV LANA binding to histone H2A/H2B | Q9QR71 | cell-free LANA-H2A/H2B peptide, fluorescence polarization | inhibition, % (no concentration beside the values) | 320,000 tested, 0.6% active | AID 2629; in the data active = inhibition mostly above about 10%, no sharp cut-off; inactive = mostly below about 6.7%;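 also: stock transfer was 7.5 nL into about 10 µL; 0% = median of vehicle wells and 100% = median of positive control wells; one replicate is shown; the record names a cut of 25% in any replicate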
* = called active by the depositor; ? = inconclusive; / = not tested or not shown; & = joins results of further samples; ! = a repeat was not active. Outcome played no part in choosing rows. Share with any hit: about 6.3%.

SMILES | RanGTP-Impb inh | Vif TR-FRET | B2AR ag | HNF4A DNA FP | ALR H2O2 inh | Calb FLC | LANA-H2A inh
CS(=O)(=O)Nc1ccc(N2CCN(c3ccc(C(F)(F)F)cn3)CC2)nc1 | 0.9 | / | 3 | 1.8 | / | -7 | -3.1
CCc1ccccc1NC(=O)NCc1cccnc1 | 1.4 | -12% | 1 | -0.9 | 2 | 3 | -1.2
CC1(C)S/C(=N/N=C/c2cccs2)NC1=O | 0.3 | 12% | 1 | 0.6 | -6 | 13 | -0.8
Cc1cc(=O)[nH]c(NN=C2CCC(C(C)(C)C)CC2)n1 (centres undefined) | 5.1 | -9% | -3 | 1.5 | 4 | 3 | 6.9
O=c1[nH]c(=S)c2ncn(-c3ccccc3)c2[nH]1 | 0.8 | 8% | 5 | 0.2 | 23 | 6 | -5.6
COCCSc1nnc(NS(=O)(=O)c2ccc(C)cc2)s1 | -1.4 | 2% | 5 | -3.0 | 1 | -6 | 5.6
Cc1noc(C)c1NC(=O)Nc1cccc2c1O[C@H](CN(C)S(=O)(=O)c1ccc(F)cc1)[C@@H](C)CN([C@H](C)CO)C2=O | / | / | 1 | -0.2 | -2 | / | 8.8
O=C(CCNC(=O)Cn1ccc2ccccc2c1=O)NCCC1=CCCCC1 | -3.3 | 3% | -9 | -1.8 | / | 0 | 0.1
Cn1c(CCN2CCN(c3ccccc3)CC2)nc2cc(NC(=O)c3ccco3)ccc21 | -1.2 | -5% | -27 | 0.8 | 49 | 7 | 0.7
COc1ccccc1OCc1nnc(SCC(=O)Nc2ccc(C)cc2)n1C | -2.7 | 2% | -29 | -1.6 | 1 | 5 | 0.8
COc1ccc(NC(=O)Nc2nnc(Cc3ccccc3)s2)cc1 | -2.3 | -6% | -3 | -3.0 | -16 | -13 | 7.2
COc1ccc(N2CCN(C(=O)c3cc(=O)c4cc(C)ccc4o3)CC2)cc1 | -4.6 | -3% | 0 | -4.1 | 4 | 2 | 4.1
CC1=C2C(CCS2(=O)=O)CC2(C1)C(=O)OC(C)(C)OC2=O (centres undefined) | 1.6 | 17% | 1 | -3.8 | / | 10 | -3.7
CC1(NC(=S)NCCCCCCNC(=S)NC2(C)CCS(=O)(=O)C2)CCS(=O)(=O)C1 (centres undefined) | -0.2 | 10% | -6 | 2.7 | -1 | 24 | -2.7
Nc1cccnc1Sc1cccc(Cl)c1 | 3.6 | -1% | 5 | 3.9 | -18 | -13 | 5.0
CC1CC1C(=O)OCC(=O)Nc1cc(S(=O)(=O)N2CCCCC2)ccc1Cl (centres undefined) | / | / | -14 | -1.1 | -16 | / | -0.7
Cn1nc(NC(=O)C2CCC2C(=O)O)c2c(F)cccc21 (centres undefined) | 3.2 | -16% | -2 | -1.2 | / | 4 | 0.3
CCCCN(C(=O)CCSc1ccc(F)cc1)c1c(N)n(Cc2ccccc2)c(=O)[nH]c1=O | 0.3 | 0% | 7 | 1.2 | 2 | 0 | -4.5
CCOC(=O)N1CCN(C(=O)CN2C(=O)c3ccccc3S2(=O)=O)CC1 | 1.5 | / | 14 | -1.1 | -5 | 11 | -1.7
COc1ccc(S(=O)(=O)Nc2ccccc2N2CCOCC2)cc1[N+](=O)[O-] | 5.9 | 16% | 5 | 3.6 | 6 | -1 | -8.8
CCCC(=O)Nc1ccc(NC(=O)c2ccccc2OC)cn1 | -2.2 | 0% | 8 | 0.4 | -5 | -3 | -0.9
CCOC(=O)c1sc2nc(C)cc(C)c2c1N | ? | -7% | -8 | 1.6 | 13 | -17 | 2.6
Nc1nc2nc(-c3ccccc3)cc(=O)n2[nH]1 | -2.3 | -1% | 4 | 2.5 | -2 | -9 | 1.0
CCSc1nnc(NC(=O)CSc2nnc(Cc3cccn3C)n2CCc2ccccc2)s1 | 5.0 | 3% | 1 | -0.9 | / | 17 | 5.8
Cn1c(NC(=O)c2ccccc2NC(=O)C(C)(C)C)nc2ccccc21 | -3.4 | 7% | -18 | 7.0 | -3 | 5 | 2.9
COc1ccc(CCC(C)NCc2cccc(Br)c2)cc1 (centres undefined) | 1.1 | -8% | 1 | -2.7 | -1 | -11 | 0.1
CC(=O)Nc1ccc(NC(=O)C(C)Sc2nnc(-c3ccc4c(c3)OCO4)o2)cc1 (centres undefined) | / | 1% | 0 | -1.1 | 17 | / | 1.4
Cc1ccc(-c2nn(CC(=O)NCCN3CCOCC3)c(=O)c3ccccc23)cc1 | -3.4 | 0% | 4 | 0.8 | 1 | 12 | 0.8
CCOc1ccc(CCNC(=O)CCCn2c(=O)c3cccn3c3cccnc32)cc1OCC | 2.1 | -12% | -11 | 3.6 | -8 | 24 | -5.1
Cc1csc(SCC(=O)Nc2sccc2C#N)n1 | -1.0 | 2% | 9 | 2.6 | / | 4 | 1.3
CC(C)CC(c1nnnn1Cc1ccccc1)N1CCN(C(=O)c2ccco2)CC1 (centres undefined) | 1.8 | -6% | -1 | -0.8 | -37 | 1 | 3.3
COc1ccc(/C=N/NC(=O)c2ccc(NC(C)=O)cc2)cc1COc1ccc(F)cc1F | -2.3 | 3% | -5 | 14 | 1 | 7 | -0.9
Cc1nc(C(=O)NC2CCOCC2)sc1C1(C)CC(c2ccccc2)=NO1 (centres undefined) | 0.3 | / | 8 | 0.7 | / | -16 | -5.8
COc1cc(CCC(=O)OCC(=O)Nc2cccc(S(=O)(=O)N(C)C)c2)cc(OC)c1OC | 0.4 | ? | -3 | -3.6 | -22 | -17 | -3.4
Cc1cccc(NC(=O)c2ccccc2NC(=O)c2ccccc2)n1 | -1.5 | / | -1 | 1.1 | 10 | 10 | -2.6
Cc1ccc(C(=O)N2CCC3(CC2)Oc2ccc(Cl)cc2C(=O)C32CC(c3ccccc3)=NO2)s1 (centres undefined) | ? | 4% | -4 | 4.0 | / | -2 | 2.6
Cc1ccc(NC(=O)CN(C)CC(=O)Nc2c(C)cccc2C)c(Br)c1 | -5.1 | -3% | -11 | -0.6 | -5 | 2 | 2.3
CCOc1ccc(C(C)NC(=O)Nc2ccccc2C(=O)OC)cc1 (centres undefined) | 0.5 | -2% | 4 | -2.5 | -1 | -31 | -2.2
C/C(CCCO)=N/Nc1ccc([N+](=O)[O-])cc1[N+](=O)[O-] | -2.5 | -11% | 1 | 0.4 | -4 | -18 | -0.2
CN(C)c1cccc(C(=O)N2CCCC(C(=O)c3cc(F)ccc3F)C2)c1 (centres undefined) | -1.0 | / | -4 | 0.5 | 12 | 7 | -3.6
CN(CCO)c1c2c(nc3cc(-c4cccc(F)c4)nn13)CCCC2 | 2.9 | -10% | -13 | -3.0 | -3 | 11 | 2.9
Cc1noc(C)c1CSCc1ccc(Cl)cc1 | 2.8 | -1% | 7 | 0.2 | -9 | -17 | 7.9
O=C(NCC1CCCCC1)c1ccc(Br)o1 | / | -7% | 5 | 1.5 | 4 | / | -4.7
CCOC(=O)N1CCN(C(=O)c2cn(-c3ccc(C)c(C)c3)c(=O)c3ccccc23)CC1 | / | -10%&4% | 3 | -1.0 | / | / | /
O=C(Cn1cnc2c(nnn2Cc2ccc(F)cc2)c1=O)N1CCCCC1 | 5.9 | 6% | -6 | -3.6 | -6 | -2 | 1.3

As a short view, two of the compounds above.
SMILES | RanGTP-Impb inh | Vif TR-FRET | B2AR ag | HNF4A DNA FP | ALR H2O2 inh | Calb FLC | LANA-H2A inh
CC(C)CC(c1nnnn1Cc1ccccc1)N1CCN(C(=O)c2ccco2)CC1 (centres undefined) | 1.8 | -6% | -1 | -0.8 | -37 | 1 | 3.3
COc1ccc(/C=N/NC(=O)c2ccc(NC(C)=O)cc2)cc1COc1ccc(F)cc1F | -2.3 | 3% | -5 | 14 | 1 | 7 | -0.9

(continued)
SMILES | RanGTP-Impb inh | Vif TR-FRET | B2AR ag | HNF4A DNA FP | ALR H2O2 inh | Calb FLC | LANA-H2A inh
Cc1nc(C)c(C(=O)NCc2ccccc2Cl)o1 | -0.5 | 8% | 16 | 6.9 | -2 | -10 | 4.0
CC1CCN(c2ccc3c(c2)S(=O)(=O)c2cccc(C(=O)NC4CC4)c2C3=O)CC1 | / | / | 9 | 43* | 1 | / | -5.5
COc1ccc(OCc2cc(C(=O)NCC3CCCCO3)no2)c(Cl)c1 (centres undefined) | 2.0 | / | 6 | 3.7 | -4 | -14 | -4.7
O=C(Nc1ccccc1C(=O)N1CCOCC1)C1CCCO1 (centres undefined) | 8.2 | 0% | -7 | 2.6 | -24 | 2 | 4.3
CCCc1nn2c(N)c(/C=C3\C=Nc4ccccc43)c(=O)nc2s1 | -11&-15 | 3%&10% | -4&-3 | -3.2&2.6 | 92*! | 5&-6 | -3.0&0.6
COC(=O)c1ccccc1NC(=O)C1CCCCC1C(=O)O (centres undefined) | 1.1 | -2% | -15 | -0.1 | -8 | 12 | -1.0
O=c1cc(NCc2ccccc2)c2ccccc2o1 | -0.9 | -9% | -11 | 3.3 | -1 | -3 | -3.9
CC(C)OCCCNC(=O)C(NC(=O)c1ccc(Cl)cc1)C(C)C (centres undefined) | 1.9 | 5% | -2 | -1.3 | -2 | -3 | -0.3
COc1ccc(OC)c(NC(=O)c2cccc(NC(=O)c3ccccc3C(=O)O)c2)c1 | 2.0 | / | -2 | -3.3 | -7 | -6 | -0.7
C[C@H](NC(=O)[C@H](Cc1ccccc1)NC(=O)c1cc2cc(Cl)ccc2n1C)C(=O)O | -6.4 | 0% | -2 | 23 | -2 | -2 | 0.6
CC(=O)Nc1ccc(NC(=O)c2c(C)nn(-c3ccccc3)c2Cl)cc1C | 5.0 | -2% | -3 | 2.2 | 1 | 2 | -1.9
COc1cc([N+](=O)[O-])ccc1NC(=S)NNC(=O)CCC(=O)Nc1ccccc1Cl | 0.4 | / | 2 | 1.4 | 67 | -2 | -6.8
COC(=O)c1ccc(CN2C(=O)NC3(CCC(C)CC3)C2=O)cc1 (centres undefined) | 3.6 | 3% | 0 | -1.9 | 17 | 3 | -3.0
Cc1onc(-c2ccccc2Cl)c1C(=O)Nc1ccc(-n2nncc2C(C)(C)C)cc1 | 2.7 | 7% | -4 | -0.8 | -3 | 9 | -1.4
O=[N+]([O-])c1nn(-c2ccc3c(c2)OCCO3)n(O)c1=NCc1ccccc1Cl | 1.7 | -5% | -10 | -1.3 | -3 | 3 | -5.4
O=C(Cn1cnc2c(nnn2Cc2ccc(Cl)cc2)c1=O)NC1CCCC1 | 1.0 | 8% | -16 | 2.1 | -2 | -5 | 0.8
O=C(COc1ccc2ccccc2c1)Nc1nnc(-c2ccco2)s1 | -3.0 | 8% | / | / | -7 | 1 | 5.8
CN(Cc1c(C(=O)N/N=C/c2ccc(F)cc2)nnn1-c1nonc1N)C1CCCCC1 | 5.0 | / | -7 | 0.4 | 0 | / | -2.9
CN(c1ccccc1)S(=O)(=O)c1cccc(C(=O)Nc2ncn[nH]2)c1 | 0.6 | 0% | 3 | 0.2 | / | -1 | 4.0
CCc1cc2cc(C)cc(C)c2[nH]c1=S | -7.9 | -6% | 2 | -3.3 | / | -17 | 1.1
CCCOc1cccc(C2/C(=C(/O)c3ccc4c(c3)CC(C)O4)C(=O)C(=O)N2CCN2CCOCC2)c1 (centres undefined) | 2.5 | / | -7 | -5.1 | 61 | 4 | 0.9
CCOC(=O)CCNC(=O)CNC(=O)OCc1ccccc1 | 0.6 | -2% | 0 | -1.7 | 0 | -9 | 4.6
CC(=O)Nc1ccc(C(=O)Nc2nc(-c3cccnc3)cs2)cc1 | -3.3 | 1% | 1 | -0.4 | / | -3 | -1.4
COc1cccc(-c2c(C(=O)N/N=C(\C)c3ccncc3)nnn2-c2nonc2N)c1 | -0.1 | / | -9 | 2.7 | -15 | 0 | -8.2
O=C(NCCS(=O)(=O)c1ccc(Br)cc1)c1ccccc1 | 5.6 | / | -10 | 1.9 | -3 | -2 | 3.8
